Hsc70: Hsc70 inhibitors, probe displacement, primary screen, biochemical, fluorescence polarization (AID 568). Heat shock cognate 71 kDa protein (Homo sapiens). Hsc70 fluorescence polarization, probe displacement; higher % means a stronger effect; strong numbers were not always called active. one-dose displacement, % at 20 µM; IC50 in µM for titrated hits. 83,000 tested, under 10 active;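 active means displacement above 50% without optical interference and an IC50 on retest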;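 further: ATPase domain with a fluorescein-tagged ATP probe; 0% = vehicle and 100% = excess ADP; read after one hour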
MT1-MMP reporter: inhibitors of MT1-MMP promoter transcription, cell-based, luciferase reporter, luminescence (AID 618) | hit rate 0.62% among 87,000 | MT1-MMP promoter luciferase reporter cells, luminescence | calls from a first round at 10 µM; hits with a dose series show EC50 in µM;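 active means over half of the reporter light lost at 10 µM or EC50 under 50 µM; inactive means the rest and hits that failed the dose series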;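 further: actives suppress MT1-MMP promoter-driven transcription so potencies describe inhibitors; HT1080 fibrosarcoma cells; overnight exposure; toxic or luciferase-blocking compounds were not removed from the actives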
WNV protease inh: inhibitors of WNV NS2B-NS3 protease, primary screen, biochemical, fluorogenic substrate. Genome polyprotein (West Nile virus), P06935. hit rate 0.18% among 65,000. fluorogenic substrate Ex360/Em465; active compounds read low. z-score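 (tested at a level between 10 and 100 µM)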;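 active means z-score at -3 or under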;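 further: score is relative to mean and spread of the compound wells of a plate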
Target sequence (P06935 1371-1501 limits assumed): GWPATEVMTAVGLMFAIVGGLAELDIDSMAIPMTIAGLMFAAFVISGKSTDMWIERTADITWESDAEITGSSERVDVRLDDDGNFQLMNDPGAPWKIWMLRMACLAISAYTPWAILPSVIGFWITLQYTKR
Target sequence (P06935 1502-1679 limits assumed): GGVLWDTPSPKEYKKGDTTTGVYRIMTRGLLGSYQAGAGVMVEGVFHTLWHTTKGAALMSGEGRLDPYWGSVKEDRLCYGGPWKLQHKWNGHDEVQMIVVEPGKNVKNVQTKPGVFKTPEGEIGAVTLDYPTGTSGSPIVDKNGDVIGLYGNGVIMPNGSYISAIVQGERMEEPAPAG
An asterisk follows results filed as active; i = inactive; . = no result given. Rows were taken by chance; overall some 0.87% were active at least once.

| canonical_smiles | Hsc70 | MT1-MMP reporter | WNV protease inh |
| --- | --- | --- | --- |
| O=C(CSc1nc2ccccc2nc1SCC(=O)N1CCCCC1)N1CCCCC1 | 3.6% | i | 1.8 |
| COc1ccc(C(=O)NC2CCN(S(=O)(=O)Cc3ccccc3)CC2)c(OC)c1 | 4.1% | i | -0.76 |
| COc1cccc2c(=O)c(SC(F)(F)C(F)C(F)(F)F)c(C)[nH]c12 (centres undefined) | -2.0% | i | -0.35 |
| Cc1ccc(NC(=O)CSc2nnc(-c3ccncc3)o2)cc1 | 1.5% | i | . |
| COc1ccc(-c2nnn(CC(=O)N3CCN(c4ccccc4OC)CC3)n2)cc1 | 4.2% | i | . |
| O=C(Cc1cccs1)N1CCC(c2nc3c(nnn3Cc3ccccc3)c(=O)[nH]2)CC1 | -0.9% | i | -1.1 |
| Cc1ccc(S(=O)(=O)Nc2nc(C)cc(-n3nc(C)cc3C)n2)cc1 | -2.1% | i | . |
| CCOC(=O)N1CCN(C(=O)C2CCN(S(C)(=O)=O)CC2)CC1 | 3.0% | i | 0.25 |
| COc1ccc2[nH]c(=O)c(CN(CCc3ccccc3)Cc3nnnn3CC3CCCO3)cc2c1 (centres undefined) | 2.3% | i | 0.11 |
| O=C(Nc1nc2ccccc2n1CCN1CCCC1)c1ccc(Cl)cc1 | 1.6% | i | 1.5 |
| O=C(CN1CCOCC1)Nc1ccc(Oc2ccccc2)cc1 | -1.1% | i | -0.85 |
| CCCC(=O)Nc1nc2n(n1)C(c1ccccc1)CC(=O)N2 (centres undefined) | -2.4% | i | . |
| COC(=O)c1ccc(CN2CCN(Cc3ccc(C(=O)OC)o3)CC2)o1 | -7.7% | i | 0.05 |
| CCOC(=O)CSc1nc(-c2ccccc2)cc(C(F)(F)F)n1 | 1.3% | i | . |
| COCc1[nH]nc2c1C(c1ccc(F)cc1F)C(C#N)=C(N)O2 (centres undefined) | -0.2% | i | 1.6 |
| COC(=O)c1ccc(CSc2nnc(N)s2)cc1 | 2.2% | i | -0.86 |
| CCc1nnc(NC(=O)CCC(=O)N2CCN(CCc3ccccc3)CC2)s1 | 0.9% | i | -0.89 |
| N#CCCNC(=O)CCN1CCOCC1 | -1.6% | i | -0.62 |
| Cc1ccc(NC2=CC(=O)CC(c3ccco3)C2)c(N)c1 (centres undefined) | 8.5% | i | 0.78 |
| Cc1ccc(-n2c(-c3ccc(Br)cc3)c[n+]3c2CCc2ccc4cccnc4c2-3)cc1 | -0.5% | i | . |
| CCOC(=O)C(NC(=O)CC)(Nc1ccccc1OC)C(F)(F)F (centres undefined) | -6.1% | i | 0.74 |
| CCOC(=O)CSc1nnc(-c2cccc(Cl)c2)n1CC | -2.2% | i | 0.44 |
| CCN(C1CCCCC1)S(=O)(=O)c1ccc(C(=O)O)cc1 | 2.1% | i | 0.32 |
| CCOC(=O)c1cccc(NC(=O)CSc2nnc(C)n2Cc2ccccc2)c1 | -0.1% | i | 0.82 |
| CCc1nc(C)c(C#N)c2cc(OC)c(OC)cc12 | 1.7% | i | 0.51 |
| CCOc1ccc(-c2nnn(CC(=O)c3cc(OC)ccc3OC)n2)cc1 | -0.3% | i | -0.17 |
| Cc1ccc(Nc2nc3nonc3[nH]c2=O)cc1C | 3.1% | i | 0.33 |
| COc1cc(-c2cc3nc(C)c(C)c(=O)n3[nH]2)cc(OC)c1OC | -4.9% | i | -0.37 |
| Cc1ccc2[nH]cc(C(=O)CN3CCC4(CC3)OCCO4)c2c1 | -2.0% | i | -0.26 |
| Cc1cc(C(F)F)n2nc(C(=O)Nc3ccccc3F)nc2n1 | -6.9% | i | 0.12 |
| Cc1nn(-c2nc3ccccc3[nH]2)c(N)c1-c1ccc(Cl)cc1 | -3.6% | i | . |
| CCOC(=O)N1CCN(c2cc(C)nc3nc(C)nn23)CC1 | 3.5% | i | 0.27 |
| CN(C)CCCNC1=CC(=O)OC12CCCCC2 | 5.0% | i | . |
| Cc1cc(NC(=O)c2cccc(N3C(=O)CCC3=O)c2)no1 | 1.6% | i | -0.98 |
| Clc1ccc(-c2cn3cccnc3n2)cc1Cl | -16% | i | . |
| CN(C)c1nc(N)nc(/C(C#N)=C/C2CC3C=CC2C3)n1 (centres undefined) | -6.1% | i | 1.6 |
| COc1ccc(C(=O)Nc2cc(OC)nc(OC)n2)cc1 | 1.1% | i | . |
| COc1ccc(C(=O)c2ccc(OC)c(N)c2)cc1N | -5.6% | i | -0.66 |
| Cn1c(CSc2nc3ccccc3s2)nnc1SCC(=O)NCc1ccccn1 | -4.4% | i | . |
| CC(C)N(C)CCOC(=O)c1ccc2c(c1)OCCO2 | 12% | i | . |
| O=C(NCCC1=CCCCC1)C1CCN(c2nnc(-n3cccc3)s2)CC1 | -0.9% | i | 0.11 |
| O=c1c(Cl)c(NCCO)ncn1-c1ccccc1 | -0.5% | i | -1.1 |
| COc1ccccc1C(=O)N(Cc1nc(-c2ccc(Cl)cc2)no1)C(C)C | -2.4% | i | 0.0062 |
| Cc1ccc2c(CN3C(=O)NC4(CCCCC4)C3=O)cc(=O)oc2c1C | 4.1% | i | -0.69 |
| CC(OC(=O)c1cc[n+]([O-])cc1)C(=O)Nc1ccc(Cl)cn1 (centres undefined) | -6.0% | i | -0.68 |
| CCc1ccc(-c2nc(C(N)=O)c3[nH]c(=O)n(-c4ccccc4OC)c3n2)cc1 | 0.7% | i | 2 |
| Cc1csc(=S)n1-c1ccccc1 | -2.1% | i | . |
| COc1ccc(/C=C2/C(=O)N=C(N)N2C)cc1OC | -3.2% | i | . |
| Cc1nc2sc(C(c3ccc(F)cc3)N3CCN(C(=O)c4ccco4)CC3)c(O)n2n1 (centres undefined) | -4.0% | i | -0.62 |
| CCC(C)NS(=O)(=O)c1ccc(NC(=O)c2c(-c3ccccc3)noc2C)cc1 (centres undefined) | -0.5% | i | 1.4 |
| Cc1cc(C)nc(NS(=O)(=O)c2ccccc2)n1 | -4.3% | i | 0.85 |
| Cc1nc(-c2cccc(S(=O)(=O)N3CC(C)CC(C)C3)c2)cs1 (centres undefined) | -1.2% | i | . |
| Cc1ccc(-c2nnn(CC(=O)N(Cc3ccc(F)cc3)C(C(=O)NC3CCCC3)c3ccncc3)n2)o1 (centres undefined) | -6.6% | i | . |
| NS(=O)(=O)c1cccc2cccnc12 | -9.3% | i | -0.21 |
| Cc1ccc(NC2=NCC(=O)N2c2ccc3c(c2)OCCO3)c(C)c1 | -2.5% | i | -0.48 |
| O=c1[nH]c(=O)n(Cc2ccccc2)c2nc(-c3ccco3)cc(C(F)(F)F)c12 | -5.3% | i | 0.97 |
| CCCCn1cnc2c([nH]c3ccccc32)c1=O | -1.6% | i | . |
| CCOC(=O)c1c(C)oc(/N=C/c2ccccc2O)c1C#N | -2.6% | i | 0.04 |
| O=S(=O)(NCCc1ccncc1)c1ccc(Br)cc1 | -3.8% | i | . |
| Nc1ccc2nc(-c3ccccc3)[nH]c2c1 | 3.7% | i | . |

(more compounds)
The line under a structure holds: Hsc70 | MT1-MMP reporter | WNV protease inh
NC(=O)c1c(-c2cccs2)csc1N
→ 7.7% | i | 1.1
CCn1c(=O)c2c3c(sc2n2c(=S)[nH]nc12)CCC3
→ 4.2% | i | .
CC(=O)/C(=N\Nc1ccccc1)Oc1ccc([N+](=O)[O-])cc1
→ -2.8% | i | .
Cc1ccc(NC(=O)N2CCc3ccccc32)cc1
→ 2.4% | 3.4µM* | .
Cc1ccc2c(c1)C(c1ccccc1)N(C(=O)C(C)C)CC(=O)N2 (centres undefined)
→ -2.9% | i | 0.01
CCOC(=O)C(C)n1cnc2c(nnn2-c2ccc(OC)cc2)c1=O (centres undefined)
→ -1.9% | i | 0.3
CCC(=O)Nc1ccc(NC(=O)c2ccccc2Cl)nc1
→ -4.8% | i | 0.54
CC1CCCCN1C(=O)CSc1nc(C2CC2)nc2c1cnn2-c1ccccc1 (centres undefined)
→ 0.3% | i | -0.5
N#Cc1c(SCC(N)=O)nc2c(c1-c1ccc(OCc3ccccc3)cc1)CCCC2
→ -0.6% | i | .
CCCS(=O)(=O)c1nc(S(=O)(=O)c2ccc(C)cc2)c(N2CCCC2)s1
→ 3.8% | i | 0.65
Cc1cc(Cl)c(S(=O)(=O)Nc2ccon2)cc1OCC(=O)NC1CCCCC1
→ 6.8% | i | 0.04
CCOC(=O)c1c(C)n(OCc2ccccc2)c2ccc3nonc3c12
→ -5.6% | i | -0.13
COc1ccc(N2CCN(CCCNC(=O)C3CCCN(S(=O)(=O)c4cnc[nH]4)C3)CC2)cc1 (centres undefined)
→ 3.1% | i | -0.41
Cc1cc(=O)oc2cc(OCC(=O)N3CCCc4ccccc43)ccc12
→ 2.6% | i | -0.32
CSC(=NS(=O)(=O)c1ccccc1)SC
→ 3.7% | i | .
CN(C)CCN1C(=O)c2oc3ccccc3c(=O)c2C1c1cccc(Br)c1 (centres undefined)
→ 2.8% | i | 0.92
Cn1c(=O)c2c(-c3ccccc3)n(-n3cnnc3)cc2n(C)c1=O
→ -1.1% | i | -0.6
CCOc1ccc(CCNC(=O)C2CC(=O)N(C3CCCC3)C2)cc1OCC (centres undefined)
→ -3.0% | i | 1.2
CCOc1ccc(C(=O)c2nc3c(n2O)CCCC3)cc1
→ 0.2% | i | -0.45
CN1CCN(/C=N/c2sc3c(c2C#N)CCCCC3)CC1
→ 0.8% | i | 0.33

Quoted from the results shown for reference:
The line under a structure holds: Hsc70 | MT1-MMP reporter | WNV protease inh
CCCS(=O)(=O)c1nc(S(=O)(=O)c2ccc(C)cc2)c(N2CCCC2)s1
→ 3.8% | i | 0.65
Cc1cc(Cl)c(S(=O)(=O)Nc2ccon2)cc1OCC(=O)NC1CCCCC1
→ 6.8% | i | 0.04
CCOC(=O)c1c(C)n(OCc2ccccc2)c2ccc3nonc3c12
→ -5.6% | i | -0.13
COc1ccc(N2CCN(CCCNC(=O)C3CCCN(S(=O)(=O)c4cnc[nH]4)C3)CC2)cc1 (centres undefined)
→ 3.1% | i | -0.41

(next part)
The line under a structure holds: Hsc70 | MT1-MMP reporter | WNV protease inh
COc1ccc(-n2nnnc2SCC(=O)c2cccc(OC)c2)cc1
→ 3.9% | i | -0.27
CCOC(=O)Cn1c(S(=O)(=O)Cc2ccccc2)nc2ccccc21
→ -3.8% | i | 0.89
C=CCn1c(=O)c(C#N)cc2c(=O)n3ccccc3nc21
→ -0.3% | i | 1.7
O=C(COC(=O)c1ccc2ccccc2c1)Nc1ncc(C(F)(F)F)cc1Cl
→ -6.1% | i | .
O=C(Nc1ccc(F)cc1)N(CCCN1CCOCC1)Cc1cc2cc3c(cc2[nH]c1=O)OCCO3
→ -7.8% | i | 0.35
CCOC(=O)N1CCN(C(=O)CS(=O)(=O)Cc2nc(-c3ccccc3C)oc2C)CC1
→ 1.1% | i | -0.25
O=C(NC1CCCCC1)C(c1ccc(Cl)cc1)N(C(=O)c1cnccn1)c1ccc2c(c1)OCO2 (centres undefined)
→ -0.9% | i | 0.37
Cc1nc2ccccc2c2oc(C(=O)NCCN3CCN(C)CC3)cc12
→ -3.8% | i | -0.15
COc1ccc(-c2noc(CCCc3ccccc3)n2)cc1OC
→ 3.2% | i | -0.34
CCC(C)(C)N1CC(=O)N(Cc2ccccc2)C(c2ccc(OC)cc2)C1=O (centres undefined)
→ 0.6% | i | 0.48
O=C(COC(=O)C1CCN(C(=O)c2ccc(Cl)cc2)CC1)c1ccco1
→ -7.6% | i | -0.03
O=C(NC1CCCCC1)NC1CCN(S(=O)(=O)Cc2ccccc2)CC1
→ -2.3% | i | 0.73
CC(c1ccco1)N(C(=O)c1ccc(Cl)s1)c1ccccn1 (centres undefined)
→ 4.4% | i | -0.15
CS/C(=N\S(=O)(=O)c1cccs1)Nc1ccc(N2CCOCC2)cc1
→ 3.8% | i | 1.3
O=C(OC(C(=O)NC1CCCC1)c1cccnc1)C1=Cc2ccccc2OC1 (centres undefined)
→ 1.1% | i | .
Oc1ccc(Cl)cc1-c1cc(C(F)(F)C(F)F)nc(-c2ccccc2)n1
→ -0.7% | i | .
CC1CC(C)CN(C(=O)COC(=O)CNS(=O)(=O)/C=C/c2ccccc2)C1 (centres undefined)
→ 3.2% | i | 0.15
c1ccc(Cn2nnnc2C(c2ccccn2)N2CCOCC2)cc1 (centres undefined)
→ 4.7% | i | -0.88
CSc1ccccc1NC(=O)CN(Cc1ccc(Cl)cc1)S(C)(=O)=O
→ 5.0% | i | 1.2
COC(=O)Nc1nc(C)c(C(=O)N(C)C)s1
→ 1.8% | i | -1.2
Cc1cc(Br)ccc1NC(=O)CNC(=O)CN(C)Cc1nc2ccccc2c(=O)[nH]1
→ -3.1% | i | -0.13
CCN(CC)S(=O)(=O)c1ccc(S(=O)(=O)N(Cc2ccccn2)Cc2ccco2)cc1
→ 0.2% | i | 0.84
CCOC(=O)c1cccc(-n2c(C)nc3ccccc3c2=O)c1
→ -2.0% | i | -0.12
Cc1ccc2nc(NCc3ccco3)c(C=NCc3ccco3)c(=O)n2c1
→ -6.0% | i | -0.08

Among those listed so far, these contain bromine:
The line under a structure holds: Hsc70 | MT1-MMP reporter | WNV protease inh
Cc1ccc(-n2c(-c3ccc(Br)cc3)c[n+]3c2CCc2ccc4cccnc4c2-3)cc1
→ -0.5% | i | .
O=S(=O)(NCCc1ccncc1)c1ccc(Br)cc1
→ -3.8% | i | .
CN(C)CCN1C(=O)c2oc3ccccc3c(=O)c2C1c1cccc(Br)c1 (centres undefined)
→ 2.8% | i | 0.92
Cc1cc(Br)ccc1NC(=O)CNC(=O)CN(C)Cc1nc2ccccc2c(=O)[nH]1
→ -3.1% | i | -0.13

Screens: PubChem, several laboratories
